ClpP mod = qHTS Assay for Activators of ClpP; ATP-dependent Clp protease proteolytic subunit (Bacillus subtilis (strain 168)), P80244; purified B. subtilis ClpP, FRET peptide cleavage, 20 min; Potency, µM (titrated, usually from 57.5 µM), without a hit: top-dose activity change, negative = active; 340,000 tested, 1.9% active; AID 651965, 2013; active = well fitted falling curve with a large enough effect; inconclusive = small, poorly fitted or top-dose-only effect; inactive = no such curve, though single readings can be large or run the other way; also: potency is read from the fitted curve at half-maximal effect; the source files actives as falling curves though it sought activators and does not explain the sign; nearly all actives have a fitted effect of over 65% in size; many hits overshoot -100%
Target sequence (P80244 whole entry, looked up): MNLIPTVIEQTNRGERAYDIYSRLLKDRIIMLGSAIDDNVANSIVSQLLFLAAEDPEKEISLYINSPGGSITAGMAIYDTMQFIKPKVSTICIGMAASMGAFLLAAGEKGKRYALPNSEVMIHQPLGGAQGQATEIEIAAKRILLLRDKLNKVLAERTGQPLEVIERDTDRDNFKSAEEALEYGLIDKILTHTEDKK
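FRET quenching reversal measured ClpP activation: 10 microg/mL B. subtilis ClpP at pH 8 with the FRET-FV decapeptide, read at 430 nm after 320 nm excitation. The 20-min minus 0-min signal was scaled between DMSO/no-enzyme wells and ADEP (5.8 microM final).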
gsp antag = gsp mutant antagonism; gsp-mutant cells, cAMP HTRF, 30 min; control for the full effect not named in the record; Potency, µM (highest dose often 76.9 µM), without a hit: at the highest dose activity change, negative = inhibition, hits mostly inhibitors; 340,000 tested, 0.4% active; active = falling curve of any shape with a large fitted effect; inconclusive = falling curve, mostly with a smaller effect; inactive = flat or rising curve; cell line not stated here;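 also: intracellular cAMP measured with PDE inhibitor Ro 20-1724 present during compound exposure; potency is read from the fitted curve at half-maximal effect; % is scaled to controls: 0 for no effect and ±100 for the full control effect; nearly all actives have a fitted effect of over 65% in size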
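HTRF cAMP measurement after 30 min RT detection following 30 min, 37C compound treatment alongside […] (added as 300 uM solution) in G418-selected cells seeded at 2000/well and grown 16–24 h.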
gsp agonist = agonists of gsp mutant (McCune-Albright syndrome); gsp mutant cells, cAMP HTRF, 30 min; control for the full effect not named in the record; Potency, µM (highest dose often 76.9 µM), for the others: at the top dose activation (cAMP increase), most hits filed as activators; 340,000 tested, 0.13% active; active = well fitted activation curve with a large enough effect; inconclusive = small, poorly fitted or top-dose-only effect, or another doubt; inactive = no such curve, though single readings can be large or run the other way; cell line not stated here;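 also: phosphodiesterase inhibitor Ro 20-1724 added with compounds to block cAMP breakdown; potency is read from the fitted curve at half-maximal effect; nearly all actives have a fitted effect of over 60% in size; about a fifth of the inactives were tested at one dose only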
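Cells stably selected in G418 were plated at 2000/well, grown 16-24 hr, then given compounds in DMSO with the PDE inhibitor […] (300 uM solution added) for 30 min at 37C; cAMP was read by HTRF.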
TRPML1 agonist = agonists of human TRPML1 channel. activation, % (test concentration not listed). Q9GZU1. TRPML1-expressing cells, Ca2+ dye fluorescence, FDSS; host cell line not named in the record; reference of the full effect not given here. 410,000 tested, 0.12% active. AID 624414; in the data active = activation above about 50%; inconclusive = about 30% to 50%; inactive = below about 30%; also: 0% is about no effect; the text of the record puts the active cut at 80%
Target sequence (Q9GZU1 whole entry, looked up): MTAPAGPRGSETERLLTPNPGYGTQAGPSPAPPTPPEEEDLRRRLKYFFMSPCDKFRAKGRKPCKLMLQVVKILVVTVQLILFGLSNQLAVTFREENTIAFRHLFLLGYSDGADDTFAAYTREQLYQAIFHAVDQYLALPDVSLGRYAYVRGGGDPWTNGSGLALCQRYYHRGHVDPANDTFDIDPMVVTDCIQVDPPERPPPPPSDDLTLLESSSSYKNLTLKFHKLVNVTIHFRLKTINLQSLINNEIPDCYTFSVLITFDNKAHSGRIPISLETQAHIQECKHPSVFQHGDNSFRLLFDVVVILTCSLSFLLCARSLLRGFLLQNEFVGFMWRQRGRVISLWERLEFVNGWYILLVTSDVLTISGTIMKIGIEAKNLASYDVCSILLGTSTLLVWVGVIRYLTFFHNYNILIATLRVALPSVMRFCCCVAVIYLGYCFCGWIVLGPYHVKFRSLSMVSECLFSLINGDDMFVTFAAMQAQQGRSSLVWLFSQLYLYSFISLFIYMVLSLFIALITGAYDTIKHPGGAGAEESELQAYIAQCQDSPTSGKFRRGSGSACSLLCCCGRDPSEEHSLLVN
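Calcium fluorescence on an FDSS kinetic reader gave the read-out. Tet-induced TRPML1-DL cells were plated overnight, dye-loaded (Ca8 with quencher, 45-90 min, room temperature, dark), then read 110 s after compound addition, and again 110 s after 4uM final 54-4 (EC80).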
TRPML1 blocker = inhibitors of human TRPML1 channel | TRPML1-inducible cells, Ca2+ dye fluorescence, FDSS; active compounds read low; inhibition of EC80 agonist-evoked calcium signal | activity change, negative = inhibition, % (no concentration beside the values) | 390,000 tested, 0.02% active | AID 624415; in the data active means activity change below about -50%; inconclusive means about -30% to -50%; inactive means above about -30%;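 also: stimulus is agonist 54-4 at its EC80 concentration; % is scaled to controls: 0 for no effect and ±100 for the full control effect; compound concentration not given in the record; the text of the record puts the active cut at -80%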
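TRPML1-DL cells, Tet-induced overnight (~16 h, 37 °C) at 1,500 cells/well, were loaded with Ca8 no-wash dye plus quencher for 45-90 min at room temperature. Compounds were pinned during FDSS kinetic reading; agonist 54-4 at EC80 (4 uM final) then added.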
Menin-MLL FL inh = displaces fluorescein MLL peptide from human menin; AID 1766; 290,000 tested, under 10 active; Fluorescence polarization, fluorescein-MLL peptide displacement from menin; FP activity change, % at 61.4 µM; inconclusive = falling polarisation curve, or a change in total fluorescence; inactive = total fluorescence flat and polarisation flat or rising; no compound was filed as active; the % refers to the polarisation; negative = inhibition;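 also: % of control where 0% means no effect; inhibitors lower the polarisation; unlabelled MLL peptide was the positive control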
An asterisk follows results filed as active; i = inactive; ? = inconclusive; · = not tested or not shown; [ ] = dose if it differs, or a comment.

SMILES | ClpP mod | gsp antag | gsp agonist | TRPML1 agonist | TRPML1 blocker | Menin-MLL FL inh
O=[N+]([O-])c1ccc(C(O)CNC(=S)Nc2ccccc2)cc1 (stereo unspecified) | · | -2% | 0%[15.4 µM] | 6.9 | 10 | 0.5
Cc1c(NC(=O)C(CC(=O)O)NCc2ccco2)c(=O)n(-c2ccccc2)n1C (stereo unspecified) | 0.7% | 5% | -9% | 1.5 | 11 | 2.3
CCOC(=O)c1c(C)[nH]c(C)c1S(=O)(=O)N(C)CC(=O)Nc1ccc(C)cn1 | -0.7% | 5% | 1% | 0.5 | -8 | ·
CC1CCC2(CC1)NC(=O)N(CC(=O)Nc1cccc(S(=O)(=O)N3CCCC3)c1)C2=O (stereo unspecified) | 0.9% | 5% | ? | -1.1 | 1 | ·
Cc1cccc(NC(=O)/C(C#N)=C/c2ccc(F)cc2)n1 | 3.2% | 1% | 3% | 0.5 | 0 | 4.6
Cn1nc(C(=O)Oc2cc(=O)n(C)c3ccccc23)c2ccccc2c1=O | ? | 7% | 9% | 3.2 | -22 | 0.3
COc1cc(OC)cc(-c2nnc(SCC(=O)N(Cc3ccccc3)C(C)(C)C)o2)c1 | -16% | -13% | -53%[inhibitor] | 0.0 | 3 | 2.9
O=C(CCN1C(=O)C2CC=CCC2C1=O)Nc1nccs1 (stereo unspecified) | -2.6% | -6% | -17% | -0.4 | 9 | 1.8
Cc1n[nH]c(C)c1CN(C)C(=O)C1CCC(=O)N(CC2CCCCC2)C1 (stereo unspecified) | -3.9% | 7% | ? | 0.4 | -5 | ·
CCC(Oc1cc(Cl)ccc1Cl)C(=O)N1CCCN(C)CC1 (stereo unspecified) | -23% | 4% | -45%[inhibitor] | -0.5 | 33 | ·
CS(=O)(=O)N(CCc1ccccc1)CC(=O)N1CCN(c2ccccc2F)CC1 | -0.2% | -28% | -20% | -0.3 | -22 | 5.8
C/C(=N\NC(=O)Cn1cnc2ccccc21)c1cccs1 | · | 3% | 4% | -0.3 | 44 | -3.0
Cc1ccc(C(C(=O)NC2CCCC2)N2CCCCC2)cc1 (stereo unspecified) | 0.7% | 8% | ? | -1.0 | -24 | 4.3
Cc1nn(-c2nnc(NC3CCCCC3)nn2)c(C)c1Br | 0.3% | -2% | -4% | 0.1 | -14 | 4.6
COc1ccc(-n2c(COc3ccc(C)cc3)nnc2SCC(=O)O)cc1 | · | -2% | ? | -0.4 | -6 | 0.8
O=C(COC(=O)CNC(=O)C1CCCCC1)Nc1ccc(Br)cc1Br | 2.9% | 6% | -4%[15.4 µM] | 2.7 | 18 | ·
COc1ccc(CCNC(=O)CN2C(=O)C3(OCCCO3)c3ccccc32)cc1OC | -0.5% | 2% | ? | -0.7 | 41 | 1.5
CCN1CCN(C(=O)/C=C/c2ccc3c(c2)OCO3)CC1 | · | 10% | 11%[15.4 µM] | -0.2 | 10 | -7.1
CNCC(O)c1ccc(OC(=O)C(C)(C)C)c(OC(=O)C(C)(C)C)c1 (stereo unspecified) | 1.9% | 0% | · | 0.4 | -1 | ·
Cc1ccc(C)c(Nc2cc(C)nc3ccccc23)c1 | -3.7% | -8% | 16% | -0.1 | 19 | ·
COCCC(=O)Nc1ccc2c(c1)CN(C(=O)CCSC)CC2 | · | 11% | -3%[15.4 µM] | -0.6 | -8 | -3.1
CCCOc1ccc(NC(=O)CC2C(=O)N(c3ccc(OCC)cc3)C(=S)N2C2CC2)cc1 (stereo unspecified) | 1.1% | 1% | -43%[inhibitor] | -0.6 | 8 | 4.4
COc1ccc(-c2nc(N=Nc3ccc(O)cc3)n[nH]2)cc1 | 1.8% | ? | 5% | 1.4 | -9 | 14
CC1=C(c2ccc(C(C)C)cc2)S(=O)(=O)NC1=NCc1ccccc1C | -0.2% | · | · | 0.6 | 21 | ·
O=C(NNC(=O)c1ccc(Br)o1)c1csc(N2CCOCC2)n1 | · | 2% | 8%[15.4 µM] | -0.5 | 6 | ·
COc1cc2nc(SCC(=O)Nc3c(C)cc(C)cc3C)n3nc(CCn4c(C)nc5ccccc54)nc3c2cc1OC | -6.6% | · | · | 1.6 | -6 | ·
COc1ccc(NC(=O)c2cc(-c3cccs3)on2)c(OC)c1 | · | 7% | 10% | -0.2 | -9 | -14
C=CCOc1c(Cl)cc(CNn2cn[nH]c2=S)cc1OC | -0.7% | -10% | 7% | 0.5 | 4 | -1.4
NC(=O)c1c(NC(=O)C2COc3ccccc3O2)sc2c1CCN(Cc1ccccc1)C2 (stereo unspecified) | · | i | -16%[15.4 µM] | 1.2 | 2 | ?
CSc1nnc2c(n1)OC(c1cccc(O)c1Cl)Nc1ccccc1-2 (stereo unspecified) | -0.7% | · | · | -0.6 | -3 | ·
Cc1cccc(Cn2cc3c(=O)n(CC(=O)Nc4cccc(C)c4C)nc-3c3cc(F)ccc32)c1 | 1.4% | · | · | 1.4 | -5 | ·
COc1ccc(NC(=O)c2sccc2C)cn1 | 0.3% | 8% | -1%[15.4 µM] | -0.9 | 2 | -5.0
CCOC(=O)Cc1cnc(NC(=O)CSc2nc(C)cc(C)n2)s1 | · | 6% | 1%[15.4 µM] | -0.6 | 8 | 1.4
COc1ccc(OC)c(C(C(=O)NC2CCCCC2)N(C(=O)c2snc(C(N)=O)c2N)c2ccccc2OC)c1 (stereo unspecified) | 49% | -6% | ? | 2.5 | 37 | ·
O=S(=O)(c1cccs1)N1CCC(Cc2ccccc2)CC1 | 0.7% | -12% | 10% | 1.5 | 8 | 1.7
O=C(CC1COc2ccccc2O1)NCCc1ccccc1 (stereo unspecified) | -18% | 7% | 29% | -1.1 | 14 | 1.3
COc1ccccc1N(CC(=O)NCCc1ccccc1)C(=O)CCC(=O)Nc1nccs1 | · | -10% | 14%[15.4 µM] | 0.4 | 12 | -1.4
COc1ccc(-c2cc(C(F)(F)F)nc(SCC(=O)NCc3cccs3)n2)cc1OC | 25µM* | 19% | -5% | 2.4 | 35 | 5.2
Cc1ccc(/C=N\n2c(-c3ccccc3)n[nH]c2=S)s1 | -0.1% | -29% | -41%[inhibitor] | 3.6 | 6 | 0.8
Cc1ccc(NC(=O)CCNC(=O)c2ccccc2)cc1F | · | -3% | 28% | 0.1 | 2 | -17
O=C(Nc1ccc2nn(-c3ccccc3)nc2c1)c1ccc2c(c1)OCCO2 | 8.9µM* | -11% | ? | -0.3 | 17 | 0.6
CCOC(=O)c1[nH]c(C)c(CCC(=O)NCc2ccc(CC)cc2)c1C | -3.5% | · | · | -0.1 | -15 | ·
COCc1cc(=O)[nH]c(/N=C(\N)Nc2ccccc2C)n1 | -0.1% | 2% | 4% | 0.5 | 29 | 2.6
CN(C(=O)c1cccc(C#N)c1)c1nnc(C2CCCO2)s1 (stereo unspecified) | -0.1% | 12% | 2% | -0.3 | 14 | 2.1
O=C(Cc1ccccc1)NN1C(=O)C2C(C1=O)C1C=CC2C12CC2 (stereo unspecified) | -1.9% | 8% | -7% | 0.5 | 13 | -0.1
COc1cc(C2Nc3ccc4ncccc4c3C3=C2C(=O)CCC3)cc(OC)c1O (stereo unspecified) | -4.4% | 7%[15.4 µM] | 9% | 0.4 | -29 | -1.9
CCOc1ccc(CCNC(=O)c2ccc3c(c2)N(Cc2ccc(F)cc2)CCS3)cc1 | 4.4% | · | · | 0.5 | -6 | ·
CCN(CC)C(=O)C1=C(C)N(Cc2ccc(C(C)(C)C)cc2)C(=O)C(CC(=O)NCCCN(C)C)C1 (stereo unspecified) | -0.7% | · | ? | -0.5 | 8 | ·
CSC1=C(C#N)C(c2cccc(Br)c2)CC(=O)N1 (stereo unspecified) | 0.3% | -1% | -19% | 1.5 | -10 | -0.3
CCC(Oc1ccccc1-c1nnc(-c2ccccc2)o1)C(=O)Nc1ccc(C(C)=O)cc1 (stereo unspecified) | 1.6% | · | · | -0.4 | -3 | ·
O=S(=O)(N/N=C/c1ccc(Cl)cc1)c1ccc(Cc2ncc(C(F)(F)F)cc2Cl)s1 | 0.0% | -12% | 1% | 3.1 | 16 | -0.2
COc1ccc(S(=O)(=O)Nc2ccc(Cc3ccncc3)cc2)cc1C | 0.2% | ? | 21% | 0.0 | 4 | ·
CCC(C)NC(=O)c1ccc2c(c1)S(=O)(=O)c1ccccc1C2=O (stereo unspecified) | 1.3% | 14% | -48%[inhibitor] | 0.5 | -1 | ·
Cc1ccc(NC(=S)Nc2c(C)n(C)n(-c3ccccc3)c2=O)cc1 | 1.3% | 4% | -42%[inhibitor] | 1.9 | 59 | 4.4
CCCn1c2ccccc2c2cnn(CC(=O)NC3CCC(C)CC3)c(=O)c21 (stereo unspecified) | -22% | -5% | 12% | -0.8 | 23 | ·
Cn1cc(/C=C2\SC(=S)N(NC(=O)c3ccccc3Cl)C2=O)c2ccccc21 | -0.8% | -18% | -3%[15.4 µM] | 11 | -6 | ?
C/C(=C\C(=O)c1ccccc1)Nc1cccc(O)c1 | -1.7% | ? | -4% | -0.3 | -5 | 0.9
CCOC(=O)c1c(NC(=O)c2ccccc2C)sc2c1CCCC2 | 32µM* | · | · | 2.5 | 26 | ·
CCOCCCNC(=O)C(NC(=O)c1ccccc1O)c1ccc(C)cc1 (stereo unspecified) | · | -10% | 0%[15.4 µM] | -0.4 | -19 | -2.6
COc1ccc(Cc2nc3ccc(C(=O)NCCc4ccc(OC)c(OC)c4)cc3o2)cc1 | -1.8% | · | · | 0.8 | 7 | ·

Three of the compounds above, with two lines to a compound:
The line under a structure holds: ClpP mod, gsp antag, gsp agonist, TRPML1 agonist, TRPML1 blocker, Menin-MLL FL inh
CCOC(=O)c1c(NC(=O)c2ccccc2C)sc2c1CCCC2
→ 32µM*, ·, ·, 2.5, 26, ·
CCOCCCNC(=O)C(NC(=O)c1ccccc1O)c1ccc(C)cc1 (stereo unspecified)
→ ·, -10%, 0%[15.4 µM], -0.4, -19, -2.6
COc1ccc(Cc2nc3ccc(C(=O)NCCc4ccc(OC)c(OC)c4)cc3o2)cc1
→ -1.8%, ·, ·, 0.8, 7, ·

(list continues)
SMILES | ClpP mod | gsp antag | gsp agonist | TRPML1 agonist | TRPML1 blocker | Menin-MLL FL inh
CCN(CC)C(=O)C1=C(C)N(CCCN2CCCC2=O)C(=O)C(CC(=O)NC2CCCC2)C1 (stereo unspecified) | 1.4% | · | -31% | -0.5 | -7 | ·
Fc1ccc(F)c(Nc2c3c(nc4ccc(Cl)cc24)CCC3)c1 | ? | · | · | 1.2 | 30 | ·
CC(C)c1ccc(C(=O)CN2C(=O)NC3(CCc4ccccc43)C2=O)cc1 (stereo unspecified) | -2.2% | -9% | -14%[15.4 µM] | 2.9 | -2 | ·
CCOP(=O)(c1ccc(N(C)C)cc1)C(O)c1ccccc1OC (stereo unspecified) | -0.9% | -1% | -3% | -0.8 | -6 | -1.0

Screens deposited in PubChem by National Center for Advancing Translational Sciences (NCATS).
